PK Bst = modulators of Bacillus stearothermophilus pyruvate kinase; partly purified Bacillus stearothermophilus pyruvate kinase, luminescence ATP production; ribose 5-phosphate activator present at AC10; Potency, µM; 1.2% of 51,000 active; AID 361; in the data active means potency below about 11 µM; inconclusive means mostly about 12 µM to 25 µM; inactive means weaker than that;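 the screen sought inhibitors and activators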;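 also: potency is read from the fitted curve at half-maximal effect; scaled between full activation by ribose 5 phosphate and full inhibition by luteolin; about four in five hits inhibit and the cells do not say which; series up to 57 µM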
YjeE inh = displaces an ADP probe from E. coli YjeE (TsaE); P0AF67; purified YjeE, fluorescence polarisation of a bound ADP probe; Potency, µM; 0.05% of 71,000 active; active = well fitted falling curve; inconclusive = weaker or top-dose-only fall, or a rising curve; inactive = flat or poorly fitted curve;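 also: top concentration of the series not given in the record; excess ADP was the control for the full effect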
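Purified YjeE (10 uM) with BODIPY Texas Red-labeled ADP probe (2 uM); compounds pin-transferred, 15 min at room temperature. Binding inhibition read as decreased fluorescence polarization; ADP titration as control.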
The depositor's hits bear a star; i = inactive; ? = inconclusive; . = no result given.

SMILES | PK Bst | YjeE inh
OCCNc1cc(-n2nc(-c3ccccc3)cc2-c2ccccc2)ncn1 | >57 | i
CCn1ncc(C2=NOC(C(=O)Nc3c(C)nn(Cc4ccc(F)cc4)c3C)C2)c1C (stereo not drawn) | . | i
CCNS(=O)(=O)c1ccc(S(=O)(=O)N(Cc2ccccn2)C2CCCCC2)cc1 | >57 | i
CCN(Cc1cc2ccccc2[nH]c1=O)C(=O)C1CCCCC1 | >57 | i
CCCCn1c(SCC(=O)Nc2nnc(C)s2)nnc1-c1ccoc1C | >57 | i
Cc1nc2c(c(=O)n1Cc1ccccc1Cl)c1nc3ccccc3nc1n2Cc1ccco1 | >57 | i
Fc1ccccc1N1CCN(Cc2nc(-c3ccc(Cl)cc3Cl)no2)CC1 | >57 | i
c1ccc(-c2nn3nnnc3c3ccccc23)cc1 | >57 | i
O=S(=O)(c1ccc(Oc2ccccc2)cc1)N1CCOCC1 | >57 | i
COc1ccc(S(=O)(=O)Nc2cc(C)c(O)cc2C(C)C)cc1 | >57 | i
COc1ccccc1-c1cc(C(=O)NC(C)c2ccccc2)no1 (stereo not drawn) | >57 | i
CCOC(=O)c1sc(NC(=O)c2c(C)nn(Cc3ccccc3)c2C)cc1C | . | i
Nc1ccn([C@@H]2O[C@@H](CO)[C@@H](O)[C@H]2O)c(=O)n1 | . | i
CCCCN(C)Cc1c(O)ccc2c(-c3ccccc3)cc(=O)oc12 | . | i
COC(=O)C1=C(N)Oc2cc(C)n(CCc3ccccc3)c(=O)c2C1c1cccnc1 (stereo not drawn) | >57 | i
CN1C(=O)CC(P(=O)(c2ccccc2)c2ccccc2)N(C)C1=O (stereo not drawn) | . | i
COc1ccc(OC)c(Nc2cc(-c3ccccc3)nc(N)n2)c1 | >57 | i
Cc1nn(CCc2nn[nH]n2)c2nc(C(F)(F)F)cc(C(F)(F)F)c12 | >57 | i
O=C(C1CCN(S(=O)(=O)c2cccc3nsnc23)CC1)N1CCc2ccccc21 | i | i
COc1ccc(CCC(=O)NCc2ccco2)cc1 | >57 | i
Cc1nc2cc(NC(=O)N3CCC(c4ccccc4)C3)ccc2n1C (stereo not drawn) | >57 | i
O=C(c1nc2ncccn2n1)N1CCN(c2ccc(F)cc2)CC1 | >57 | i
COc1cc(-c2nnc(CSc3nc4ccccc4s3)o2)cc(OC)c1OC | >57 | i
Cc1ccccc1-c1nnc(-c2ccc(Br)cc2)o1 | 4.4* | i
CCN(CC)C(=O)c1ccc(CS(=O)(=O)c2ccc(OC)cc2)o1 | . | i

Remaining list, next part.
SMILES | PK Bst | YjeE inh
CCN(CC)S(=O)(=O)c1ccc(NC(=O)Cn2c(=O)sc3ccccc32)cc1 | >57 | i
COc1cccc(C(=O)Nc2cccc(-c3nc4ncccc4o3)c2C)c1 | . | i
COc1ccccc1NC(=O)C1=C(C)NC(=O)NC1c1cccc(OC)c1OC (stereo not drawn) | . | i
COc1ccc(C(c2nnnn2C2CCCC2)N2CCC(C)CC2)c(OC)c1 (stereo not drawn) | >57 | i
COc1ccccc1N1CCN(C(=O)c2c(C)cc(=O)oc2C)CC1 | >25.6 | .
N#CCCn1c(SCC(=O)c2c[nH]c3ccccc23)nc2ccccc21 | >57 | i
CCOC(=O)c1cnc2nc(NCc3ccc(OC)c(OC)c3)[nH]n2c1=O | >57 | i
O=C(CCCCCN1C(=O)CCC1=O)NCc1ccccc1 | >57 | i
Cc1cc2cc(CCNC(=O)C(C)C)c(=O)[nH]c2cc1C | >57 | i
CCCCC1CCC(/C(N)=N/O)CC1 (stereo not drawn) | >57 | i
CCCCCCNC(=O)C(C(=O)OCC)C1CCCCC1 (stereo not drawn) | . | i
c1ccc(-c2nc(CSc3nnc(-c4cccs4)o3)cs2)cc1 | >57 | i
COC(=O)c1[nH]c2cccc(Cl)c2c1NC(=O)CN(C)C1CCCCC1 | >57 | i
O=C(c1ccc(Br)o1)N1CCN(c2ccccn2)CC1 | >57 | i
CCCCCn1c(CN2CCCCC2C)nc2c1c(=O)n(C)c(=O)n2C (stereo not drawn) | >57 | i
CC(C)C1C2=C(CC(C)(C)CC2=O)ON1c1ccccc1 (stereo not drawn) | . | i
O=C(Nn1nnnc1Nc1ccccc1)C12CC3CC(CC(C3)C1)C2 | >57 | i
Cn1c(=O)c2c(nc(N3CCCC3)n2CC(O)CO)n(C)c1=O (stereo not drawn) | >57 | i
CCCCNC(=O)Nc1cc(C(=O)OC)ccc1C | . | i
COc1ccc(C(=O)N/N=C2/C(=O)c3c(C)cc(C)cc3CC2(C)C)cc1 | . | i
O=C(Nc1ccc(S(=O)(=O)N2CCN(Cc3ccccc3)CC2)cc1)c1cnccn1 | >57 | i
O=C(NCCCN1CCCC1)c1ccc(CS(=O)(=O)c2ccc(Br)cc2)o1 | . | i
O=C(O)CCN1CCOCC1 | >57 | i
CCC(=O)N1CCc2cc(S(=O)(=O)CCC(=O)Nc3nc(C)cs3)ccc21 | >57 | i
CS(=O)(=O)c1ccc(Cl)c(S(=O)(=O)NCc2ccccc2)c1 | >57 | i

(listing goes on)
SMILES | PK Bst | YjeE inh
Cn1c(Sc2ccc(-c3cccnc3)n2C)ccc1-c1cccnc1 | . | i
CN1CCN(c2ncncc2-c2ccccc2Cl)CC1 | . | i
COc1ccc2nc(NC(=O)C3CCN(S(=O)(=O)c4cccc5nsnc45)CC3)sc2c1 | 2.98* | i
Cc1cc(C)c2cc(CN(CCO)C(c3nnnn3Cc3ccc(F)cc3)C(C)C)c(=O)[nH]c2c1 (stereo not drawn) | >57 | i
O=C(c1ccco1)N1CCN(C(=O)c2cc3sccc3n2Cc2ccccc2)CC1 | >57 | i
N#CC1=C(N)S[C@H](C(=O)C23CC4CC(CC(C4)C2)C3)[C@H]1c1ccncc1 | >57 | i
CCn1c(CNC(=O)c2cccc(C)c2)nnc1SCC(=O)Nc1cccc(OC)c1 | >57 | i
CC(C)c1ccccc1S(=O)c1ccccc1C(C)(C)O (stereo not drawn) | . | i
NC(=O)C1CCN(CCC(=O)Nc2cccc(Cl)c2)CC1 | >57 | i
CCCCC(=O)Nc1ccc2c3c(cccc13)C(=O)N2CC | >57 | i
CC(O)CN1C(=O)C(CC(=O)Nc2ccc(Cl)cc2)SC1=Nc1ccccc1 (stereo not drawn) | >57 | i
CC(C)CCn1cnc2c1c(=O)n(C)c(=O)n2C | >57 | i
Cc1cccc(OCCSc2nnc(-c3ccoc3C)n2C)c1 | >57 | i
Cc1cccc(C)c1NC(=O)CSc1nnc(CCCCCNC(=O)OC(C)(C)C)o1 | >57 | i
CCOc1cc([C@H]2[C@@H]3CCCC[C@]3(O)CCN2CC(=O)NCc2ccco2)ccc1O | >57 | i
Cc1ccccc1-c1ccc(Nc2ccc(C(=O)N3CCOCC3)cc2)nn1 | >57 | i
O=C(N1CCOCC1)N1CCN(c2ccccc2F)CC1 | . | i
CC1CCCN(C(=O)Cc2ccc(F)cc2)C1 (stereo not drawn) | >57 | i
CSCCc1nc(SCC(=O)Nc2nnc(C)s2)[nH]c1C | >57 | i
COC(=O)c1ccccc1NC(=O)CS(=O)(=O)Cc1nc(-c2ccc(C)cc2)oc1C | . | i
COc1ccc(CNC(=O)c2cc(-n3cnnc3)ccc2Cl)cc1 | . | i
CC(C)(C)SCCNC(=O)c1ccc(NS(C)(=O)=O)cc1 | >57 | i
COc1ccccc1N1CCN(C(=O)c2cc(-c3ccc(C)cc3)on2)CC1 | >57 | i
c1ccc2c3c([nH]c2c1)[C@@H]1[C@H]2CC[C@H]([C@H]4CCCN[C@H]42)N1CC3 | . | i
NCCCCN=C(N)N | . | i

Later entries.
SMILES | PK Bst | YjeE inh
CSc1nnc(-c2nnc(SC)n2-c2ccccc2)n1-c1ccccc1 | >57 | i
CCO/C=C1\C(=O)N(c2ccccc2)C(=O)c2ccccc21 | . | i
O=C(CC1CCCC1)OCn1nnc2ccccc2c1=O | >57 | i
Cc1cc(NC(=O)CSc2nnc(C)c(=O)[nH]2)no1 | . | i
Cn1c(=O)cnc2cnc(Nc3ccccc3)nc21 | . | i
COc1cccc(CNC(=O)C2CCN(S(=O)(=O)c3c(C)nn(C)c3C)CC2)c1 | . | i
O=c1[nH]c(N2CCOCC2)nc2ncn(Cc3ccccc3)c12 | >57 | i
C=CCNc1nc(NCCN2CCOCC2)nc(OC)n1 | >57 | i
COc1ccc2nc3oc(C(=O)N4CCN(c5cccc(C(F)(F)F)c5)CC4)cc3cc2c1 | >57 | i
O=C(c1ccc(F)cc1)C1CCN(CCCCc2ccccc2)CC1 | . | i
O=C(c1nc2nc(-c3ccccc3)cc(C(F)(F)F)n2n1)N1CCOCC1 | >57 | i
COc1ccc(CCNC(=O)Cc2cc(=O)[nH]c(=O)[nH]2)cc1OC | . | i
Cc1ccc(CNC(=O)CSc2nc3ccccc3c(=O)n2CCCO)cc1 | >57 | i
CCNC(=O)NC(=O)C(C)OC(=O)c1cccnc1SC (stereo not drawn) | >57 | i
O=C(NCC1CCCO1)[C@@H]1CSC2c3ccccc3C(=O)N21 (stereo partly drawn) | >57 | i
COc1cccc(C(=O)Nc2cccc(NC(C)=O)c2)c1 | . | i
CCCCCN(C(=O)NC(=O)NC(C)CC)S(C)(=O)=O (stereo not drawn) | >57 | i
Cc1cc2c(c(=O)n1CCCn1ccnc1)C(c1ccco1)C(C#N)=C(N)O2 (stereo not drawn) | >57 | i
Cc1cccc(N(C)S(=O)(=O)c2cccc3nsnc23)c1 | >57 | i
COCCN1CN(S(=O)(=O)c2ccccc2)c2nc3ccccc3nc21 | >57 | i
COc1ccc(OC)c(C2C(C#N)=C(N)Oc3c2c(C)nn3-c2cccc(Cl)c2)c1 (stereo not drawn) | >57 | i
O=C(COc1ccc(S(=O)(=O)N2CCCCC2)cc1)NCc1ccncc1 | >57 | i
Cc1ccc(-c2nc3cc(C)ccc3o2)cc1 | . | i
O=C1OCCC1S(=O)(=O)c1ccc2ccccc2c1 (stereo not drawn) | ? | i
O=C(NCC1CCCO1)c1cc(-c2ccccc2)on1 (stereo not drawn) | >57 | i

Fetched one by one from the list above, five records:
SMILES | PK Bst | YjeE inh
O=C(CC1CCCC1)OCn1nnc2ccccc2c1=O | >57 | i
CCNC(=O)NC(=O)C(C)OC(=O)c1cccnc1SC (stereo not drawn) | >57 | i
O=C(NCC1CCCO1)[C@@H]1CSC2c3ccccc3C(=O)N21 (stereo partly drawn) | >57 | i
COc1cccc(C(=O)Nc2cccc(NC(C)=O)c2)c1 | . | i
Cn1c(=O)cnc2cnc(Nc3ccccc3)nc21 | . | i

Complete entries, looked up by structure. Order of values: PK Bst	YjeE inh
Shown for COC(=O)C1=C(N)Oc2cc(C)n(CCc3ccccc3)c(=O)c2C1c1cccnc1 (stereo not drawn) → >57	i
Shown for Cc1cccc(N(C)S(=O)(=O)c2cccc3nsnc23)c1 → >57	i
Shown for O=C(COc1ccc(S(=O)(=O)N2CCCCC2)cc1)NCc1ccncc1 → >57	i
Shown for COc1ccc(OC)c(Nc2cc(-c3ccccc3)nc(N)n2)c1 → >57	i
Shown for COc1ccc2nc(NC(=O)C3CCN(S(=O)(=O)c4cccc5nsnc45)CC3)sc2c1 → 2.98*	i

The list goes on.
SMILES | PK Bst | YjeE inh
CCc1ccccc1NC(=O)CSc1nnc([C@@H](N)Cc2ccccc2)o1 | >57 | i
OC(COc1ccc(Cl)cc1)CN1C2=NCCCN2c2ccccc21 (stereo not drawn) | . | i
O=C(NC1CCCC1)C1CC1c1ccccc1 (stereo not drawn) | >57 | i
COc1ccc(C(O)C(CN2CCOCC2)c2ccccc2)cc1 (stereo not drawn) | >25.6 | .
CCOC(=O)C1=C(C)NC(C)=C(C(=O)OC)[C@H]1c1cccc(Cl)c1Cl | . | i
Cc1csc(NC(=O)CSc2nc(C)cs2)n1 | >57 | i
Cc1cnc(-c2nnc(N(C)C(=O)c3cnccn3)s2)cn1 | >57 | i
O=C1Nc2ccccc2C(O)(C(=O)NCc2ccco2)N1c1ccccc1 (stereo not drawn) | >57 | i
CCCSc1nc(N2CCOCC2)c2c(c1C#N)CCCC2 | >25.6 | .
CCOc1ccc(C(=O)N2CCN(Cc3ccccc3)CC2)cc1 | . | i
CCOC(=O)C1CCCN(C(=O)c2cc3c(=O)n(C)c4ccccc4c3n2C)C1 (stereo not drawn) | . | i
CC(C)C[C@@H](CC(=O)N[C@H](CC(=O)N[C@@H]1CCNC[C@H]1C(=O)N[C@H](CC(=O)N[C@@H](CCC(=O)O)CC(=O)O)CC(C)C)C(C)C)NC(=O)[C@@H]1CNCC[C@H]1N | . | i
O=C(Cn1nnc2ccccc21)NCc1ccccc1 | >57 | i
COC(=O)c1ccc(OC(=O)c2ccc(OC)c(OC)c2)c(OC)c1 | >25.6 | .
CC(=O)c1c(C)[nH]c(C(=O)Nc2cc(C)ccc2C)c1C | . | i
Cc1c(OCC(F)(F)F)ccnc1CS(=O)c1nc2ccccc2[nH]1 (stereo not drawn) | >25.6 | i
O=C(Nc1ccc2c(c1)OCO2)C1CCN(C(=O)CSc2ncnc3ccccc23)CC1 | >57 | i
c1ccc2oc(CCc3nc4ccccc4o3)nc2c1 | >57 | i
CCn1c(COc2ccccc2)nnc1SCC(=O)NC1CCCCC1 | >57 | i
CC(=O)NCCOC(=O)Nc1ccncc1 | . | i
COC(=O)Cn1cnc2c(C#N)c3n(c2c1=O)CCCCC3 | >57 | i
COc1cc(-c2nc(Cc3ccccc3Cl)no2)cc(OC)c1OC | >57 | i

Rewritten in markdown: part of the list above.
| SMILES | PK Bst | YjeE inh |
| --- | --- | --- |
| O=C(Cn1nnc2ccccc21)NCc1ccccc1 | >57 | i |
| O=C1Nc2ccccc2C(O)(C(=O)NCc2ccco2)N1c1ccccc1 (stereo not drawn) | >57 | i |

This is a subset. The share of hits here may be higher or lower than overall.
